RE007 growth inh – less growth of the S. pombe RE007 Vpr strain | S. pombe RE007 Vpr strain, BacTiter-Glo ATP luminescence, 24 h; control for the full effect not named in the record | 0.21% of 360,000 active | AID 651644 | Potency, µM (titrated, usually from 92.2 µM), for inactives: at the highest dose activity change, negative = less growth; active = well fitted falling curve with a large enough effect; inconclusive = small, poorly fitted or top-dose-only effect; inactive = no such curve, though single readings can be large or run the other way;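 note: % is set by controls: 0 for no effect and ±100 for the full control effect; nearly all actives have a fitted effect of over 50% in size; the assay follows cell death caused by Vpr and the record does not say whether a fall means rescue or toxicity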
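Fission yeast RE007 carrying one integrated HIV-1 vpr copy, seeded at OD 0.01 in PMG+AL medium with 23 nL pinned compound. Grown 24 h at 30 degrees; viability read by BacTiter-Glo luminescence after 5 min.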
MARV entry inh – blocks Marburg virus binding to or entry into cells; Potency, µM (highest dose often 37.8 µM), inactives show at the highest dose activity change, negative = inhibition, hits mostly inhibitors; 1.8% of 300,000 active; Marburg virus pseudotyped entry inhibition, cell reporter; control for the full effect not named in the record; about a third of the inactives were read at about 46 µM; active = well fitted inhibition curve with a large enough effect; inconclusive = small, poorly fitted or top-dose-only effect, or effect the other way; inactive = flat fitted curve, though single readings scatter; tested in HEK293 cells; about a fifth of its hits are not listed in these tables; note: % is set by controls: 0 for no effect and ±100 for the full control effect; luciferase read-out
Cruzain inh Det – cruzain (T. cruzi) inhibition with detergent; P25779; purified cruzain, Z-FR-AMC fluorescence, 0.01% Triton; Potency, µM, for inactives: max response, negative = inhibition, most hits filed as inhibitors; 0.43% of 200,000 active; AID 1478;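 note: plate controls were neutral wells for no effect and buffer without enzyme for full effect; nearly all actives have a fitted effect of over 40% in size; top concentration of the series not given in the record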
Target sequence (P25779 123-467 limits assumed): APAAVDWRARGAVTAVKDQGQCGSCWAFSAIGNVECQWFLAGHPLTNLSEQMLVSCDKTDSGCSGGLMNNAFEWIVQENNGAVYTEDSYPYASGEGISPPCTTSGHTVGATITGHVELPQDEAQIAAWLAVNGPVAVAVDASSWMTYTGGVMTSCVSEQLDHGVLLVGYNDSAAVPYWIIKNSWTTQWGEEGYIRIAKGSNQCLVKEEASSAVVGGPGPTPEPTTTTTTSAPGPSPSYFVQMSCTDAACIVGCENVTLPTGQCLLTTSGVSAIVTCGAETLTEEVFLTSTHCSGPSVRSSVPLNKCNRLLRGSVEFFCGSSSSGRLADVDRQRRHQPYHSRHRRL
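15 min RT preincubation of 1.5 nM cruzain with compound, then 2 uM Z-FR-AMC added; kinetic AMC fluorescence, 60 s delta. Triton X-100 0.01%, pH 5.5.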
Lassa entry inh – Lassa virus entry inhibition. 1.2% of 300,000 active. Lassa virus pseudotype entry inhibition, cell reporter; control for the full effect not named in the record. Potency, µM (doses to about 37.9 µM), inactives show at the highest dose activity change, negative = inhibition, most hits filed as inhibitors; active means well fitted inhibition curve with a large enough effect; inconclusive means small, poorly fitted or top-dose-only effect, or effect the other way; inactive means flat fitted curve, though single readings scatter; tested in HEK293 cells; note: % is set by controls: 0 for no effect and ±100 for the full control effect; nearly all actives have a fitted effect of over 50% in size; luciferase read-out
NS1 inh – blocks influenza NS1 protein function; S. cerevisiae slowed by influenza A NS1, growth recovery by OD600; Potency, µM (titrated, usually from 46.1 µM), for the others: at the top dose activity, positive = more growth; 0.4% of 270,000 active; active means well fitted rising curve with a large enough effect; inconclusive means small, poorly fitted or top-dose-only effect; inactive means no such curve, though single readings can be large or run the other way; note: nearly all actives have a fitted effect of over 50% in size
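Recovery from NS1-induced slow growth read by OD600 in budding yeast switched to galactose assay medium (pH 6.0, -URA) at 1:100 dilution. Compound 23 nl per well; the matching strain lacking NS1 serves as control.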
StopGo reporter – lowers the luciferase signal of an FMDV 2A StopGo reporter; human cells with a luciferase reporter of 2A StopGo recoding; control for the full effect not named in the record; Potency, µM (titrated, usually from 57.9 µM), for inactives: at the highest dose signal change, negative = less light; 1.2% of 410,000 active; AID 1159524; active = well fitted falling curve with a large enough effect; inconclusive = small, poorly fitted or top-dose-only effect; inactive = no such curve, though single readings can be large or run the other way; tested in HEK293T cells; note: % is set by controls: 0 for no effect and ±100 for the full control effect; nearly all actives have a fitted effect of over 45% in size; luciferase light after 4 h
SARS PLpro yeast – SARS-CoV PLP inhibition in yeast; S. cerevisiae expressing SARS-CoV PLpro, growth rescue; control for the full effect not named in the record; Potency, µM (doses to about 32.9 µM), for inactives: at the highest dose activity, positive = growth rescue; 0.19% of 330,000 active; active means well fitted rising curve with a large enough effect; inconclusive means small, poorly fitted or top-dose-only effect; inactive means no such curve, though single readings can be large or run the other way; note: 0% is about no effect; nearly all actives have a fitted effect of over 55% in size; growth read by luminescence after 48 h
Cruzain noTriton – inhibitors of Trypanosoma cruzi cruzain without detergent; purified cruzain, Z-FR-AMC fluorescence, no detergent; 2.3% of 200,000 active; Potency, µM, inactives show max response, negative = inhibition, hits mostly inhibitors;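 note: plate controls were enzyme without inhibitor for no effect and buffer without enzyme for full effect; nearly all actives have a fitted effect of over 40% in size; top concentration of the series not given in the record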
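Purified cruzain at 1.5 nM, pre-incubated 15 min with compound at room temperature in 100 mM sodium acetate pH 5.5, 5 mM DTT, 0.00005% Triton X-100. Reaction started with 2 uM Z-FR-AMC; AMC fluorescence increase over 60 s gives rate.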
Starred values were filed as active, the others as inactive; & = joins results of further samples; [ ] = remark or other dose. Unless noted, calls come from the whole dose curve; as a rule, active = well fitted curve in the direction sought with a large enough effect; inconclusive = small, poorly fitted or top-dose-only effect, or another doubt; inactive = no such curve, though single readings can be large; an effect the other way counts as inactive or inconclusive. Potency is the fitted concentration of half-maximal effect.

Screening C=CCn1c(O)c(C(CC)=NCc2cc(OC)cc(OC)c2)c(=O)[nH]c1=O returned RE007 growth inh 16%, MARV entry inh inconclusive, Cruzain inh Det -6.5%, Lassa entry inh 5.8µM*, NS1 inh -5%, StopGo reporter -29%, SARS PLpro yeast -6% and Cruzain noTriton 11%.
For Cc1ccc(NC(=S)N2CCN(S(=O)(=O)c3ccccc3)CC2)cc1 the results were RE007 growth inh -1%, MARV entry inh 26%[46.1 µM], Lassa entry inh 5%[46.1 µM], NS1 inh 3%, StopGo reporter 38%[activator] and SARS PLpro yeast -2%.
C=CCSC1=C(C#N)C(c2cccc(OC)c2)CC(=O)N1 (configuration not stated) was read as RE007 growth inh 2%, MARV entry inh 13%, Cruzain inh Det -7.7%, Lassa entry inh 16%, NS1 inh -6%, StopGo reporter -10%, SARS PLpro yeast 2% and Cruzain noTriton 7%.
For Cc1c(C)n(CCc2ccccc2)c2ncnc(NCCCO)c12 the results were RE007 growth inh 7%, NS1 inh -7%, StopGo reporter 27% and SARS PLpro yeast 1%.
Screening O=C(Nc1ccc2nc(-c3ccco3)c(-c3ccco3)nc2c1)NC1CC1 returned RE007 growth inh -5%, MARV entry inh -1%, Cruzain inh Det 8.9µM*, Lassa entry inh -13%, NS1 inh 20%, StopGo reporter 24%, SARS PLpro yeast -7% and Cruzain noTriton 2.5µM*.
O=C1/C(=C/c2ccc(O)cc2)SC(=S)N1CC1CCCO1 (configuration not stated) was read as RE007 growth inh -4%, MARV entry inh 11%[46.1 µM], Lassa entry inh 8%[46.1 µM], NS1 inh -4%, StopGo reporter 83%[activator] and SARS PLpro yeast -2%.
Screening O=C(CCCN1C(=O)C2C3C=CC(C3)C2C1=O)N1CCN(c2ccccc2)CC1 (configuration not stated) returned RE007 growth inh -5%, MARV entry inh -11%, Cruzain inh Det 2.1%, Lassa entry inh 12%, NS1 inh -2%, StopGo reporter -18%, SARS PLpro yeast -5% and Cruzain noTriton 5%.
For COc1ccc(CC(=O)NC(c2ccccc2)c2ccc(C)cc2)c(OC)c1 (configuration not stated) the results were RE007 growth inh 3%, MARV entry inh -10%, Lassa entry inh -6%, NS1 inh -3%, StopGo reporter -7% and SARS PLpro yeast 4%.
`COc1ccc(NC(=O)CSc2nc3c(c(=O)[nH]2)CCC3)cc1` gave MARV entry inh 23%[46.1 µM], Cruzain inh Det -3.7%, Lassa entry inh 14%[46.1 µM], StopGo reporter 13% and Cruzain noTriton -9%.
`Cc1c(-c2ccc(Cl)cc2)c(=O)oc2c(CN3CCN(C)CC3)c(O)ccc12` gave Cruzain inh Det -2.7%, Lassa entry inh 21%[46.1 µM], StopGo reporter -21% and Cruzain noTriton -13%.
`O=C(NCc1cccnc1)C(=O)NCC1OCCCN1S(=O)(=O)c1ccc(F)cc1` (configuration not stated) gave RE007 growth inh 2%, MARV entry inh 16%, Lassa entry inh 16%, NS1 inh 10%, StopGo reporter -10% and SARS PLpro yeast inconclusive.
Screening CC(=O)Nc1ccc(NC(=O)Nc2ccc3c(c2)N(C)C(=O)CS3)cc1 returned RE007 growth inh 4%, MARV entry inh inconclusive, Lassa entry inh -3%, StopGo reporter -9% and SARS PLpro yeast 0%.
`CCc1cc2c(=O)c(-c3nc4ccccc4n3C)c(C)oc2c(CN2CCOCC2)c1O` gave RE007 growth inh -9%, MARV entry inh 13%, Cruzain inh Det 0.2%, Lassa entry inh -1%, NS1 inh 3%, SARS PLpro yeast 5% and Cruzain noTriton 3%.
Screening Cn1c(NCCO)nc2c1c(=O)n(Cc1cccc(Cl)c1)c(=O)n2C returned RE007 growth inh -9%, NS1 inh -4%, StopGo reporter -12% and SARS PLpro yeast 1%.
For O=C(Nn1cnnc1)c1cc([N+](=O)[O-])cc([N+](=O)[O-])c1 the results were RE007 growth inh 0%, MARV entry inh -8%, Cruzain inh Det 3.1%, Lassa entry inh 4%, NS1 inh 13%, StopGo reporter -9%, SARS PLpro yeast 17% and Cruzain noTriton -2%.
`c1cncc(CNc2ncnc3sccc23)c1` gave RE007 growth inh -4%, MARV entry inh -10%[46.1 µM], Lassa entry inh -13%[46.1 µM], StopGo reporter inconclusive and SARS PLpro yeast -1%.
O=C(CCC1N=C2c3ccccc3N=C(SCc3ccccc3Cl)N2C1=O)N1CCN(c2ccccc2)CC1 (configuration not stated) was read as MARV entry inh 6%[46.1 µM], Cruzain inh Det -5.7%, Lassa entry inh -17%[46.1 µM], StopGo reporter 0% and Cruzain noTriton -1%.
`CCc1nc(-c2cc(S(=O)(=O)N3CCN(c4ccc(F)cc4)CC3)ccc2OC)no1` gave MARV entry inh inconclusive, Cruzain inh Det -7.7%, Lassa entry inh -7%[46.1 µM], StopGo reporter 9% and Cruzain noTriton inconclusive.
Screening CCCNC(=O)c1ccc2snnc2c1 returned RE007 growth inh -5%, MARV entry inh 1%, Cruzain inh Det -1.1%, Lassa entry inh -7%, NS1 inh 2%, StopGo reporter -5%, SARS PLpro yeast 14% and Cruzain noTriton -10%.
Cc1ccc(SCn2nnc3ccccc3c2=O)c(C)c1 was read as RE007 growth inh -1%, MARV entry inh inconclusive, Lassa entry inh 2%, NS1 inh -4%, StopGo reporter 20% and SARS PLpro yeast -13%.
CCOc1cc(/C=C/c2cc(C(=O)O)c3ccccc3n2)ccc1O was read as RE007 growth inh 30%, MARV entry inh 3%, Cruzain inh Det -9.9%, Lassa entry inh -9%, NS1 inh 1%, StopGo reporter 13%, SARS PLpro yeast 24% and Cruzain noTriton -10%.
CCOC(=O)c1c(SC)n(-c2ccccc2)c(=S)n(-c2ccccc2)c1=O was read as RE007 growth inh 3%, MARV entry inh -24%[46.1 µM], Lassa entry inh 2%[46.1 µM], NS1 inh -5%, StopGo reporter -14% and SARS PLpro yeast 1%.
`C=CCN(C(=O)CCC(=O)Nc1cc(C)on1)C(C(=O)NC1CCCC1)c1ccc(OC)cc1OC` (configuration not stated) gave RE007 growth inh 13%, MARV entry inh -8%[46.1 µM], Lassa entry inh -12%, NS1 inh -1%, StopGo reporter -9% and SARS PLpro yeast -6%.
O=C(CSc1ccccc1F)Nc1ccc2c(c1)OCO2 was read as RE007 growth inh -5%, MARV entry inh 0%, Lassa entry inh -4%, StopGo reporter 82%[activator] and SARS PLpro yeast -4%.
`COc1ccccc1C(=O)NNC(=O)c1ccccc1F` gave RE007 growth inh 3%, MARV entry inh inconclusive, Cruzain inh Det -0.6%, Lassa entry inh 6%, NS1 inh -2%, StopGo reporter 11%, SARS PLpro yeast -35% and Cruzain noTriton 3%.
For O=C(CSc1ccccc1Cl)N1CCOCC1 the results were RE007 growth inh -9%, NS1 inh -3%, StopGo reporter 3% and SARS PLpro yeast 1%.
Screening CCN(CC)c1ccc(/C=N/NC(=O)Cc2cccs2)c(O)c1 returned RE007 growth inh 3%, MARV entry inh 16µM*, Cruzain inh Det -18%, Lassa entry inh 3.2µM*, NS1 inh 8%, StopGo reporter 22%, SARS PLpro yeast 5µM* and Cruzain noTriton -20%.
For O=C(NS(=O)(=O)c1ccccc1)c1ccccc1O the results were RE007 growth inh -7%, MARV entry inh 1%, Cruzain inh Det 8.9%, Lassa entry inh 11%, NS1 inh 0%, StopGo reporter 4%, SARS PLpro yeast 7% and Cruzain noTriton 0%.
COc1cccc(NC(=O)c2cc([N+](=O)[O-])ccc2NCc2cccnc2)c1 was read as RE007 growth inh -4%, MARV entry inh inconclusive, Cruzain inh Det -9.2%, Lassa entry inh 0%, NS1 inh 6%, StopGo reporter -6%, SARS PLpro yeast -10% and Cruzain noTriton inconclusive.
Screening Cc1cc([N+](=O)[O-])nn1CC(=O)NCCCn1ccnc1 returned RE007 growth inh 15%, MARV entry inh -2%[46.1 µM], Lassa entry inh -8%[46.1 µM], NS1 inh 8%, StopGo reporter -15% and SARS PLpro yeast 0%.
`NCCCCCc1nnc(SCC(=O)c2ccc(Cl)cc2)o1` gave RE007 growth inh 17%, MARV entry inh -22%, Cruzain inh Det -2.8%, Lassa entry inh 9%, NS1 inh 5%, StopGo reporter -20%, SARS PLpro yeast 7% and Cruzain noTriton -5%.
COc1cc(/C=C/C(=O)NCc2cccnc2)cc(OC)c1OC was read as RE007 growth inh 2%, MARV entry inh 12%, Cruzain inh Det -2.5%, Lassa entry inh -1%, NS1 inh 6%, StopGo reporter 10%, SARS PLpro yeast 4% and Cruzain noTriton -13%.
COc1cc(C(=O)Nc2ccc3c(c2)OCCO3)ccc1OC(C)C was read as RE007 growth inh 32%, MARV entry inh 0%, Cruzain inh Det -3.9%, Lassa entry inh 6%, NS1 inh -13%, StopGo reporter -3%, SARS PLpro yeast -7% and Cruzain noTriton 0%.
Screening O=C(COc1cc2oc(=O)cc(-c3ccccc3)c2cc1Cl)NCC1CCC(C(=O)O)CC1 (configuration not stated) returned RE007 growth inh 8%, NS1 inh 28%, StopGo reporter -9% and SARS PLpro yeast -1%.
For CCCCNC(=O)Nc1c(C(=O)OCC)[nH]c2ccccc12 the results were RE007 growth inh 7%, MARV entry inh 47%, Cruzain inh Det 0.9%, Lassa entry inh 1%, NS1 inh 3%, StopGo reporter -20%, SARS PLpro yeast 9% and Cruzain noTriton 8%.
CCOC(=O)N1CCC(NC(=O)c2cc(S(=O)(=O)N(CC)CC)ccc2F)CC1 was read as RE007 growth inh -9%, MARV entry inh -22%, Cruzain inh Det 3.9%, Lassa entry inh 13%, NS1 inh -3%, SARS PLpro yeast 0% and Cruzain noTriton 5%.
For Cn1cc(CCC(=O)NCc2ccc(Cl)cc2)c2ccccc21 the results were RE007 growth inh -4%, MARV entry inh -13%&-13%[46.1 µM], Cruzain inh Det -2.7%, Lassa entry inh inconclusive, NS1 inh -6%, StopGo reporter 1%&4%, SARS PLpro yeast -1% and Cruzain noTriton -5%.
